# NPYLR7 agonist: agonists of mosquito NPYLR7 receptor, primary screen, cell-based, Aedes aegypti, calcium fluorescence, mosquito biting behavior; Aedes aegypti neuropeptide Y-like receptor 7 (NPYLR7); HEK293T NPYLR7/Galpha15, GCaMP6s calcium fluorescence; activation, % at 10 µM; actives 0.15% (n = 270,000); AID 1259423, 2018; in the data active = activation above about 40%;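 note: 0% = vehicle and 100% = reference agonist at the receptor; some compounds past the cut are filed as inactive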
# NPYLR7 agonist max-min: also measured in NPYLR7 agonist; calls as there; activation, %; measured here: Max-Min RFU normalised activation; some inactives read as strong as hits;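 span of the calcium signal over five minutes; 0% = vehicle and 100% = native peptide agonist; compound fluorescence can raise it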
# * hit, by the source's call. Not all compounds are listed; the hit share may differ from the screen's.
cpd	molecule	NPYLR7 agonist	NPYLR7 agonist max-min
1	COc1ccccc1CNc1nc2cc(-c3ccccc3C)sc2c(=O)n1C	-1	-2
2	CCN(CC)S(=O)(=O)c1ccc(Nc2ccccc2OC)c(N)c1	0	-2
3	COc1cc(C(O)c2nc(-c3cnc4ccccc4c3)cs2)ccc1F (stereo unspecified)	6	1
4	Cc1ccccc1C(=O)NCc1ccn(-c2ccccc2F)n1	11	1
5	CC(C)(CNc1ccc([N+](=O)[O-])cc1Cl)CNS(=O)(=O)c1ccc2ccccc2c1	0	-1
6	CN(C)CCCNc1c2c(c(C#N)c3nc4ccccc4n13)CCCC2	1	4
7	CN(Cc1cc(C#CCO)cs1)C1CC(C)(C)NC(C)(C)C1	-4	-3
8	Cc1nc(C(F)(F)F)ccc1C(=O)N1CCC1(C)C(=O)NS(=O)(=O)c1ccc(C#N)cc1 (stereo unspecified)	0	-1
9	CC1(C)CC(=O)C=C(NC2CCS(=O)(=O)C2)C1 (stereo unspecified)	-4	-3
10	Cc1ccc(C)c(OCCCC(C)(C)C(=O)NCc2ccc(NC(=O)NC(C)C)cc2)c1	-9	-15
11	CCc1nc(CNC(C)(C)c2ccc(F)cc2Cl)no1	3	1
12	CC(=O)c1sc2nc(CSc3nnnn3C3CC3)[nH]c(=O)c2c1C	-4	2
13	Cc1c(Cl)cccc1N1CCN(C(=O)c2ccc(Br)cc2)C(C)C1=O (stereo unspecified)	-3	9
14	Cc1onc(-c2ccccc2)c1C(=O)Nc1ccc(S(N)(=O)=O)cc1	2	0
15	Fc1cccc(F)c1CN1CCCn2cccc2C1c1cccc(Cl)c1 (stereo unspecified)	6	6
16	Cc1cc(-c2nnn(CC(=O)NC3CCC(C)CC3)n2)ccc1F (stereo unspecified)	2	-1
17	Cc1ccc2nc(COCC(=O)N3CCC(N4CCCC4=O)CC3)[nH]c2c1	5	3
18	CCN(CC)S(=O)(=O)c1cc(C(=O)Nc2ccccc2C)ccc1C	-6	-9
19	CN(Cc1cc(-c2ccccc2)on1)Cc1cc2n(n1)CCNC2	10	8
20	O=C(CC12CC3CC(CC(O)(C3)C1)C2)NCc1coc(-c2cccs2)n1	6	5
21	COc1ccc2c(c1OC)C(=O)OC2Nc1nc2ccc(C)cc2s1 (stereo unspecified)	3	0
22	O=C(NCC(=O)N1CCC(Cc2ccccc2)CC1)Nc1cn[nH]c1	13	10
23	Nc1nnc(SCCS(=O)c2cc(Cl)ccc2Cl)s1 (stereo unspecified)	1	0
24	O=C(CSc1cc(N2CCCC2)ncn1)NCc1cccs1	3	1

# Reformatted field by field: entries from further up
[18] CCN(CC)S(=O)(=O)c1cc(C(=O)Nc2ccccc2C)ccc1C
  NPYLR7 agonist: -6; NPYLR7 agonist max-min: -9

[19] CN(Cc1cc(-c2ccccc2)on1)Cc1cc2n(n1)CCNC2
  NPYLR7 agonist: 10; NPYLR7 agonist max-min: 8

[20] O=C(CC12CC3CC(CC(O)(C3)C1)C2)NCc1coc(-c2cccs2)n1
  NPYLR7 agonist: 6; NPYLR7 agonist max-min: 5

# (cont.)
cpd	molecule	NPYLR7 agonist	NPYLR7 agonist max-min
25	CC(C)c1nc(NC(=O)c2cc(=O)[nH]c3cc(F)ccc23)n[nH]1	2	-3
26	COCc1[nH]n2c(=O)cc(C)nc2c1-c1ccc(OC)cc1	-16	-22
27	Cc1cc(C(=O)N2CCc3ccccc3C2)nc2cc(-c3ccccc3)nn12	5	10
28	Cn1c(-c2cccs2)nn(CCNC(=O)c2ccccc2C(F)(F)F)c1=O	3	0
29	COc1ccc(CCNC(=O)NCC(c2ccc3c(c2)CCN3C)N2CCCC2)cc1 (stereo unspecified)	-6	-10
30	CCC(=O)Nc1ccc(N(C)C)c(CN(Cc2ccccc2)S(=O)(=O)c2ccc(F)cc2)c1	28	35
31	Cc1cc2nc(CN3CCC4(CC3)c3ccccc3CC4O)cc(=O)n2[nH]1 (stereo unspecified)	2	3
32	CCn1nnc2c(Nc3ccc(C)cc3C)ncnc21	6	10
33	O=C(O)CCCN1C(=O)/C(=C/c2ccc(Cl)cc2)SC1=S	-2	-6
34	CC1=[N+](C)c2c(ccc3cccnc23)C1(C)C	-8	-14
35	COc1cccc(N2C(=O)CC(Sc3ncn[nH]3)C2=O)c1 (stereo unspecified)	0	-3
36	N#CCc1ccc(NC(=O)COC(=O)c2ccccc2N2CCCC2=O)cc1	-2	1
37	COc1cc2c(cc1OC)C(C(C)C)N(C(=O)COc1ccccc1)CC2 (stereo unspecified)	-2	9
38	CC(=O)Oc1c(-c2ccc(NC(=O)c3ccccc3Cl)cc2)c(C2CC2)nn1-c1ccc(F)cc1	-4	4
39	CCOC(=O)c1ccc(-n2c(C)cc(/C=C3\NC(=S)NC3=O)c2C)cc1	-2	3
40	Cc1cc(C(=O)N2C[C@@H](N)C[C@H]2C(=O)NC(C)C)ccc1N1CCOCC1	17	10
41	COc1ccc(CN2CCc3cc(OC)c(OC)cc3C2CNC(=O)c2ccccc2Cl)cc1 (stereo unspecified)	19	16
42	CC(C)CCCC1CN(C(=O)c2cnc3c(c2)nnn3C)CCO1 (stereo unspecified)	6	0
43	Cc1ccc(S(=O)(=O)NCCNC(=O)c2nonc2N)cc1	0	0
44	Cc1cc(C)n(C)c(=O)c1C(=O)N(C)Cc1cc(-c2ccccc2)n[nH]1	16	11
45	C=CCn1cc(CNC(C)(C)CN2CCCC2)c(C)n1	17	16
46	COc1ccc(C(=O)Nc2ccc3oc(-c4ccc(F)cc4Cl)nc3c2)cc1[N+](=O)[O-]	1	5
47	CC(Cc1ccccc1Cl)NC(=O)c1cc(C2CC2)[nH]n1 (stereo unspecified)	5	0
48	COc1cc(OC)nc(Nc2nc(CN)cs2)n1	-3	-8
49	O=C(c1ccc(Cl)c(Cl)c1)N1CCC(Cc2ccc3c(c2)OCO3)CC1	7	18
50	C=CCN1C(=O)/C(=C\c2ccc([N+](=O)[O-])cc2)SC1=S	-3	-9
51	COc1ccc(/C=C2\C=C(c3ccccc3)N(c3ccccc3Br)C2=O)cc1Br	-1	2
52	O=C(CCCn1nc(-c2ccc(F)cc2)ccc1=O)Nc1ccc(F)c(C(F)(F)F)c1	1	4
53	CCOc1cn(C)c(C(=O)Nc2cc(C)cc(C)c2)cc1=O	6	3
54	O=C(NCc1ccco1)c1nn(-c2ccc(F)cc2)c(=O)n(Cc2ccccc2F)c1=O	12	12
55	CCc1nc2oc3cc(OC)ccc3c(=O)c2c(=O)n1CCc1ccccc1	5	2
56	Cc1ccc2cccc(OC(=O)c3ccc([N+](=O)[O-])cc3Cl)c2n1	10	12
57	CCS(=O)(=O)NCCNc1ccc(Nc2ccncc2)nn1	11	2
58	COc1ccc(/C=C2/C(=N)N3N=C(c4ccccc4)SC3=NC2=O)c(OC)c1OC	-1	-1
59	Nc1ncc(-c2ccccc2Oc2ccccc2)cc1-c1ccccc1F	-2	-8
60	Cc1cc(NC(C)C)n2nc(C)c(-c3ccccc3)c2n1	3	-2
61	Cc1ccn2c(=O)c(NC(=O)CC3CCCCC3)c(C)nc2c1	8	6
62	CC(C1CC1)n1ncc2c(C(=O)O)cc(C3CC3)nc21 (stereo unspecified)	-4	-5
63	CCc1nc2ccc(C(=O)Nc3ccc(OC)c(OC)c3)cn2c1N(C)Cc1nccs1	-6	-8
64	CC(CCO)CNC(=O)Nc1cccc(-c2cn3c(n2)CCCC3)c1 (stereo unspecified)	1	0
65	O=C(Nc1c(-c2ccc(F)c(F)c2)nc2ccccn12)C1CCCCC1	-12	-7
66	CSCCC(C)N(C)c1cnn(C)c(=O)c1Cl (stereo unspecified)	4	4
67	Cc1ccc(C)c2sc(N(CCCn3ccnc3)C(=O)COc3ccccc3)nc12	-12	-18
68	COC(=O)C1=C(C)N(CCC2=CCCCC2)C(=O)C1=Cc1ccc2c(c1)OCO2	-5	-9
69	COCCCNC(=O)c1cc(-c2ccc(Cl)cc2)n(-c2cccc(F)c2)c1C	-3	-3
70	CC(C)C(C(=O)O)n1c(O)c(C2=c3cc(Br)ccc3=NC2=O)sc1=S (stereo unspecified)	-1	-8
71	Cc1cccc(/C=C2\SC(=Nc3ccccc3)N(c3ccccc3)C2=O)n1	1	-5
72	Cc1ccccc1N1CCN(C2CCCN(C(=O)c3cccc(-n4cccn4)c3)C2)CC1 (stereo unspecified)	23	20
73	CCn1nc(N)c2c(Cl)cccc21	0	0
74	O=C(CSc1n[nH]c(CCC2CCCC2)n1)NC1CCN(Cc2ccccc2)C1 (stereo unspecified)	1	-2
75	CCCN(Cc1c(-c2ccccc2)noc1N1CCCC1)CC(C)O (stereo unspecified)	3	2
76	COC(=O)CC(=O)N1CCC(Cc2ccc(OC)cc2)CC1	2	11
77	Cn1c2ccccc2c2nn3c(SCc4ccccc4)nnc3nc21	16	14
78	O=C(/C=C/c1ccccc1)Nc1nnc(-c2ccncc2)s1	-5	-9
79	NC(=O)c1nc(-c2ccccc2Cl)nc2c1[nH]c(=O)n2-c1ccc(F)cc1	1	-2
80	O=C(NC1CC1)c1cc(=O)c(OCc2ccccc2)co1	-2	-4
81	CCc1cc(N2CCC(O)CC2)nc(N2CCOCC2)n1	7	4
82	c1ccc2[nH]c(CCCc3nc4ccccc4[nH]3)nc2c1	4	9
83	CC(=O)Nc1ccc2c(c1)N(C(=O)C1CCCO1)CC2 (stereo unspecified)	3	5
84	CN1CCC(N(C)C(=O)CCCSc2ccc(NC(=O)c3cccs3)nn2)CC1	3	1

# Next compounds:
cpd	molecule	NPYLR7 agonist	NPYLR7 agonist max-min
85	CCC1CCCCN1C(=O)c1cnc2nc(C)ccc2c1Nc1cccc(C#N)c1 (stereo unspecified)	2	-1
86	COc1ccc(NC2CCCN(C(=O)COc3ccc4c(c3)OCO4)C2)cc1 (stereo unspecified)	6	5
87	CCOCCCNC(=O)c1cc(NC(=O)Cc2cccs2)ccc1N1CCN(c2ccccc2OC)CC1	14	17
88	C=C(C)COc1ccc(C(=O)NCCc2cn3ccccc3n2)cc1	-12	-13
89	Cc1ccc(-n2nnc3c(=O)n(Cc4ccccc4)cnc32)cc1Cl	-3	-7
90	O=c1[nH]c(=S)c2c(n1CCc1ccccc1)CCC2	0	-1
91	C=CCN(CC1CC(c2ccc(F)cc2)=NO1)C(=O)C1CCCC1 (stereo unspecified)	19	25
92	CCN1CCCC1Cn1c(=O)n(Cc2cscn2)c2cc(C(=O)O)ccc21 (stereo unspecified)	4	0
93	Cc1cccc(C2(C(=O)Nc3nccc(C)n3)CCC2)c1	4	0
94	CCN1C(=S)NC(c2ccc(NS(=O)(=O)c3ccc(OC)cc3)cc2)C(C(=O)OC)=C1C (stereo unspecified)	19	17
95	COc1cc2c(cc1-c1nccn1CCN1CCCOC1=O)CCC2	22	8

# Molecules from the list above with a Cl atom (17):
cpd	molecule	NPYLR7 agonist	NPYLR7 agonist max-min
5	CC(C)(CNc1ccc([N+](=O)[O-])cc1Cl)CNS(=O)(=O)c1ccc2ccccc2c1	0	-1
11	CCc1nc(CNC(C)(C)c2ccc(F)cc2Cl)no1	3	1
13	Cc1c(Cl)cccc1N1CCN(C(=O)c2ccc(Br)cc2)C(C)C1=O (stereo unspecified)	-3	9
15	Fc1cccc(F)c1CN1CCCn2cccc2C1c1cccc(Cl)c1 (stereo unspecified)	6	6
23	Nc1nnc(SCCS(=O)c2cc(Cl)ccc2Cl)s1 (stereo unspecified)	1	0
33	O=C(O)CCCN1C(=O)/C(=C/c2ccc(Cl)cc2)SC1=S	-2	-6
38	CC(=O)Oc1c(-c2ccc(NC(=O)c3ccccc3Cl)cc2)c(C2CC2)nn1-c1ccc(F)cc1	-4	4
41	COc1ccc(CN2CCc3cc(OC)c(OC)cc3C2CNC(=O)c2ccccc2Cl)cc1 (stereo unspecified)	19	16
46	COc1ccc(C(=O)Nc2ccc3oc(-c4ccc(F)cc4Cl)nc3c2)cc1[N+](=O)[O-]	1	5
47	CC(Cc1ccccc1Cl)NC(=O)c1cc(C2CC2)[nH]n1 (stereo unspecified)	5	0
49	O=C(c1ccc(Cl)c(Cl)c1)N1CCC(Cc2ccc3c(c2)OCO3)CC1	7	18
56	Cc1ccc2cccc(OC(=O)c3ccc([N+](=O)[O-])cc3Cl)c2n1	10	12
66	CSCCC(C)N(C)c1cnn(C)c(=O)c1Cl (stereo unspecified)	4	4
69	COCCCNC(=O)c1cc(-c2ccc(Cl)cc2)n(-c2cccc(F)c2)c1C	-3	-3
73	CCn1nc(N)c2c(Cl)cccc21	0	0
79	NC(=O)c1nc(-c2ccccc2Cl)nc2c1[nH]c(=O)n2-c1ccc(F)cc1	1	-2
89	Cc1ccc(-n2nnc3c(=O)n(Cc4ccccc4)cnc32)cc1Cl	-3	-7

# Screening data (PubChem)
